Bioassay records: PubChem, National Center for Advancing Translational Sciences (NCATS)
NS1 inh = blocks influenza NS1 protein function. Potency, µM (highest dose often 46.1 µM), for inactives: at the top dose activity, positive = more growth. actives 0.4% (n = 270,000). S. cerevisiae slowed by influenza A NS1, growth recovery by OD600; further: actives are rising curves; nearly all actives have a fitted effect of over 50% in size
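Recovery from NS1-induced slow growth read by OD600 in budding yeast switched to galactose assay medium (pH 6.0, -URA) at 1:100 dilution. Compound 23 nl per well; the matching strain lacking NS1 serves as control.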
RE007 growth inh = less growth of the S. pombe RE007 Vpr strain | Potency, µM (doses to about 92.2 µM), for the others: at the highest dose activity change, negative = less growth | actives 0.21% (n = 360,000) | S. pombe RE007 Vpr strain, BacTiter-Glo ATP luminescence, 24 h; control for the full effect not named in the record | AID 651644; active = well fitted falling curve with a large enough effect; inconclusive = small, poorly fitted or top-dose-only effect; inactive = no such curve, though single readings can be large or run the other way;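 further: on the % scale 0 is the no-effect control and ±100 the full control effect; nearly all actives have a fitted effect of over 50% in size; the assay follows cell death caused by Vpr and the record does not say whether a fall means rescue or toxicity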
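Fission yeast RE007 carrying one integrated HIV-1 vpr copy, seeded at OD 0.01 in PMG+AL medium with 23 nL pinned compound. Grown 24 h at 30 degrees; viability read by BacTiter-Glo luminescence after 5 min.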
Lassa entry inh = inhibitors of Lassa virus binding or cell entry. Lassa virus pseudotype entry inhibition, cell reporter; control for the full effect not named in the record. Potency, µM (titrated, usually from 37.9 µM), for inactives: top-dose activity change, negative = inhibition, usual class: inhibitors. actives 1.2% (n = 300,000). AID 540256; active means well fitted inhibition curve with a large enough effect; inconclusive means small, poorly fitted or top-dose-only effect, or effect the other way; inactive means flat fitted curve, though single readings scatter; tested in HEK293 cells; further: on the % scale 0 is the no-effect control and ±100 the full control effect; nearly all actives have a fitted effect of over 50% in size; luciferase read-out
2A StopGo = lowers the luciferase signal of an FMDV 2A StopGo reporter; Potency, µM (titrated, usually from 57.9 µM), for inactives: top-dose signal change, negative = less light; human cells with a luciferase reporter of 2A StopGo recoding; control for the full effect not named in the record; actives 1.2% (n = 410,000); active = well fitted falling curve with a large enough effect; inconclusive = small, poorly fitted or top-dose-only effect; inactive = no such curve, though single readings can be large or run the other way; tested in HEK293T cells; further: on the % scale 0 is the no-effect control and ±100 the full control effect; nearly all actives have a fitted effect of over 45% in size; luciferase light after 4 h
SARS PLP yeast = blocks SARS-CoV papain-like protease in a yeast assay | S. cerevisiae expressing SARS-CoV PLpro, growth rescue; control for the full effect not named in the record | Potency, µM (series often up to 32.9 µM), for the others: top-dose activity, positive = growth rescue | actives 0.19% (n = 330,000); further: 0% is about no effect; nearly all actives have a fitted effect of over 55% in size; growth read by luminescence after 48 h
Marburg entry inh = Marburg virus entry inhibition; Potency, µM (top dose mostly 37.8 µM), inactives show at the highest dose activity change, negative = inhibition, hits mostly inhibitors; AID 540276; actives 1.8% (n = 300,000); Marburg virus pseudotyped entry inhibition, cell reporter; control for the full effect not named in the record; about a third of the inactives were read at about 46 µM; active = well fitted inhibition curve with a large enough effect; inconclusive = small, poorly fitted or top-dose-only effect, or effect the other way; inactive = flat fitted curve, though single readings scatter; tested in HEK293 cells; about a fifth of its hits are not listed in these tables; further: on the % scale 0 is the no-effect control and ±100 the full control effect; luciferase read-out
Cruzain noTriton = cruzain (T. cruzi) inhibition without detergent; P25779; purified cruzain, Z-FR-AMC fluorescence, no detergent; Potency, µM, without a hit: max response, negative = inhibition, hits mostly inhibitors; actives 2.3% (n = 200,000); AID 1476; active means well fitted curve in the direction sought with a large enough effect; inconclusive means small, poorly fitted or top-dose-only effect, or another doubt; inactive means no such curve, though single readings can be large; an effect the other way counts as inactive or inconclusive;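 further: plate controls were enzyme without inhibitor for no effect and buffer without enzyme for full effect; nearly all actives have a fitted effect of over 40% in size; top concentration of the series not given in the record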
Target sequence (P25779 123-467 limits assumed): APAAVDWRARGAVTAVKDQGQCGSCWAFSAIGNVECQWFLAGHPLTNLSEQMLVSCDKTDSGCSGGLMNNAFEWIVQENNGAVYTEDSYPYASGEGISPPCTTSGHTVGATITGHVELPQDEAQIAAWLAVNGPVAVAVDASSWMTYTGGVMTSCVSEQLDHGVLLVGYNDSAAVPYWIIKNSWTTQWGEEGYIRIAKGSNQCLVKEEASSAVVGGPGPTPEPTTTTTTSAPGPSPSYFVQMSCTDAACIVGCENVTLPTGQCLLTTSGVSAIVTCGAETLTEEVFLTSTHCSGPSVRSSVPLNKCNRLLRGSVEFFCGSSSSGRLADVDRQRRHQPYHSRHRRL
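Purified cruzain at 1.5 nM, pre-incubated 15 min with compound at room temperature in 100 mM sodium acetate pH 5.5, 5 mM DTT, 0.00005% Triton X-100. Reaction started with 2 uM Z-FR-AMC; AMC fluorescence increase over 60 s gives rate.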
Cruzain inh Det = cruzain (T. cruzi) inhibition with detergent | purified cruzain, Z-FR-AMC fluorescence, 0.01% Triton | actives 0.43% (n = 200,000) | P25779 | Potency, µM, inactives show max response, negative = inhibition, hits mostly inhibitors; active means well fitted curve in the direction sought with a large enough effect; inconclusive means small, poorly fitted or top-dose-only effect, or another doubt; inactive means no such curve, though single readings can be large; an effect the other way counts as inactive or inconclusive;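 further: plate controls were neutral wells for no effect and buffer without enzyme for full effect; nearly all actives have a fitted effect of over 40% in size; top concentration of the series not given in the record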
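15 min RT preincubation of 1.5 nM cruzain with compound, then 2 uM Z-FR-AMC added; kinetic AMC fluorescence, 60 s delta. Triton X-100 0.01%, pH 5.5.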
* hit, by the source's call; ? = inconclusive; / = not tested or not shown; & = joins results of further samples; [ ] = another dose, or the depositor's remark. Unless noted, the call rests on the fitted dose curve; in most records, active means well fitted rising curve with a large enough effect; inconclusive means small, poorly fitted or top-dose-only effect; inactive means no such curve, though single readings can be large or run the other way. Potency means the concentration at half of the fitted maximal effect.

nr | molecule | RE007 growth inh | 2A StopGo | Lassa entry inh | NS1 inh | Marburg entry inh | SARS PLP yeast | Cruzain inh Det | Cruzain noTriton
1 | COc1ccc(CCC(=O)NC2CCCN(Cc3ccc(Cl)cc3)C2)cc1OC (stereo not drawn) | -7% | -13% | / | 6% | / | 4% | / | /
2 | COc1ccc(-c2cc(C(F)F)n3ncc(C(=O)NCC4CCCO4)c3n2)cc1 (stereo not drawn) | -2% | -11% | -6% | -1% | ? | -1% | 1.8% | 1%
3 | CCCCn1c(N)c(Sc2ccc([N+](=O)[O-])cc2)c(=O)[nH]c1=O | -5% | -27% | 2%[46.1 µM] | 8% | -1%[46.1 µM] | 0% | / | /
4 | O=C(/C=C/c1ccco1)Nc1ccc(Oc2ccc(Cl)cc2)cc1 | ? | ? | ? | -9% | ? | -9% | -2.9% | -7%
5 | CS(=O)(=O)N1CCC(Oc2ccccc2C(=O)N2CCNC(=O)C2)CC1 | 13% | 5% | 2%[46.1 µM] | 1% | 23%[46.1 µM] | -2% | / | /
6 | CNC(=O)C1CCN(S(=O)(=O)c2c(C)noc2/C=C/c2cccc(C)c2)CC1 | -7% | -10% | / | 10% | / | -3% | / | /
7 | O=C(O)CC(NC(=O)Cc1ccccc1)c1cc([N+](=O)[O-])ccc1Cl (stereo not drawn) | 0% | -10% | 27% | / | -13%[46.1 µM] | -4% | / | /
8 | O=C(CSc1nc(-c2ccco2)cc(C(F)(F)F)n1)NC1CCCC1 | 10% | -28% | / | -14% | / | 3% | -2.5% | -6%
9 | N#Cc1ccc(-n2nnc3ccccc3c2=O)c([N+](=O)[O-])c1 | 5% | -14% | ? | / | ? | / | / | /
10 | O=C(NCCc1ccc(Cl)cc1Cl)c1cccnc1 | 21% | 8% | 2%[46.1 µM] | -25% | 1%[46.1 µM] | -5% | / | /
11 | C/C(=N\Nc1nc(C(C)(C)C)cs1)c1ccc(O)cc1 | 7% | 0% | / | 24% | / | 10% | / | /
12 | O=C(NC1CCCC1)C1CCCN(S(=O)(=O)c2cccc3cccnc23)C1 (stereo not drawn) | -1% | -16% | / | -8% | / | 1% | 2.1% | 5%
13 | CC(NC(=O)C1CCN(C(=O)N2CCOc3ccccc32)CC1)c1ccccc1 (stereo not drawn) | / | -5% | 1%[46.1 µM] | / | / | / | -9.7% | ?
14 | CCCCC(=O)NC(c1ccccc1Cl)c1c(O)ccc2ccccc12 (stereo not drawn) | -1% | ? | -40% | 11% | -40% | 16% | -4.2% | -4%
15 | Cc1ccc(Cn2c(=O)c3c(nc4n3CCN4Cc3ccco3)n(C)c2=O)cc1 | 3% | -25% | 2% | ? | 2%&2% | 21% | -2.2% | -4%
16 | COc1cc(Cl)c(CN2CCCC(CO)(Cc3ccccc3F)C2)cc1OC (stereo not drawn) | 11% | -19% | ? | -20% | 2.8µM* | 7% | / | /
17 | O=C(OCC(=O)N1CCCCC1)c1cc2ccccc2cc1O | -30% | 4% | 4% | -32% | ? | -5% | -5.8% | -6%
18 | CCCCCCOC(=O)C1=C(C)NC(=O)NC1c1ccc(O)cc1 (stereo not drawn) | -16% | 0% | -27% | 0% | -11%[46.1 µM] | 11% | -6.7% | 2%
19 | CC1CCN(S(=O)(=O)c2nnc(NC(=O)c3cccc(F)c3)s2)CC1 | / | -2% | 10%[46.1 µM] | / | / | / | -1.2% | -5%
20 | COc1cccc(-c2nc(CS(=O)(=O)CC(=O)NCCc3ccc(C)cc3)c(C)o2)c1 | 7% | -14% | / | -22% | / | -1% | / | /
21 | Cc1nc2cc(NCc3cccs3)ccc2n1C | -10% | 48%[activator] | / | / | -11%[46.1 µM] | 1% | / | /
22 | Cc1nn(-c2ccccc2)c(NC(=O)c2cccs2)c(-c2ccc(Cl)cc2)c1=O | -14% | -23% | 23% | 20% | -12% | 9% | -2.8% | -17%
23 | CCOC(=O)c1ccccc1NC(=O)C1CC(=O)N(C2CCCCC2)C1 (stereo not drawn) | -1% | -17% | / | 7% | / | 1% | / | /
24 | S=c1[nH]nc(Cc2cccc3ccccc23)n1-c1ccccc1 | 11% | -18% | 20% | -3% | -17%[46.1 µM] | 5% | -5.7% | -2%
25 | COc1ccccc1NC(=O)CS(=O)(=O)c1cn(CC(=O)N(C(C)C)C(C)C)c2ccccc12 | -7% | -8% | 3% | / | 1% | / | / | /
26 | CCCCCn1nc(C)c(/C=N/NC(=O)c2ccoc2C)c1C | -7% | 15% | -37% | -10% | 1% | -12% | -3.1% | 12%
27 | N#CC1(c2ccccc2)CCCN1C(=O)c1ccccc1Br (stereo not drawn) | 0% | 4% | 8% | -2% | ? | 1% | 2.9% | -22%
28 | Cc1cc(C(=O)OCn2nnc3ccccc3c2=O)c(C)o1 | -7% | 19% | 1% | -21% | -1% | -7% | -0.6% | -8%
29 | CCOc1cc(CNc2ccccc2)cc(Br)c1OCc1ccc(F)cc1 | 0% | 0% | 2% | -9% | -8% | -7% | -0.6% | -16%
30 | O=C(CSc1ccc([N+](=O)[O-])cc1)Nc1cccc(S(=O)(=O)N2CCOCC2)c1 | 11% | 4% | -19% | / | -18% | -1% | / | /
31 | CC(C)CC(OC(=O)c1ccc(Cl)nc1)C(=O)NC1CCCC1 (stereo not drawn) | -9% | 19% | / | -5% | 9%[46.1 µM] | -17% | / | /
32 | Cn1c(=O)n(C)c2cc(S(=O)(=O)NCCc3ccccc3)ccc21 | 8% | 45%[activator] | 20% | -4% | 4% | -1% | -4.0% | 15%
33 | O=C(NCc1ccco1)c1cc2n(n1)C(C(F)(F)F)CC(c1ccc(F)cc1)N2 (stereo not drawn) | 15% | -6% | 3% | -11% | 19%&19% | -4% | 2.3% | -13%
34 | NC(=O)C1(c2ccccc2)CCCN1C(=O)c1ccc(Br)cc1 (stereo not drawn) | 5% | -16% | 1% | / | 4% | 1% | / | /
35 | COc1ccc(S(=O)(=O)n2oc(=O)cc2-c2ccccc2)cc1OC | -4% | -13% | -16% | 9% | 0% | 18% | 1.0% | -8%
36 | Cc1ccc(/C=C2\CCC(C3CCCC3)C2=O)cc1 (stereo not drawn) | 6% | -5% | 0% | -4% | ? | -3% | -3.0% | -13%
37 | Cc1ccccc1OCc1nc2ccccc2c(=O)n1/N=C/c1cccc([N+](=O)[O-])c1 | 3% | -16% | 7% | 5% | -1% | 10% | 5.8% | -72%
38 | COc1ccc(C(=O)N2CCNC(=O)C2CC(=O)Nc2cccc(Cl)c2Cl)cc1 (stereo not drawn) | 5% | -21% | ? | 5% | -4% | 1% | / | /
39 | O=C(COC(=O)C1CC1)Nc1ncc(Cl)cc1Cl | -2% | -3% | 1% | / | 1%[46.1 µM] | -3% | / | /
40 | O=C(NCc1cccc(Cl)c1)C1CCC(=O)N(CC2CCCCC2)C1 (stereo not drawn) | -10% | -11% | -22% | 7% | -2% | 6% | / | /
41 | COc1ccc(-n2c(Cc3cc(=O)[nH]c(=O)[nH]3)nnc2SCC(=O)NC2CCCC2)cc1 | -12% | -4% | / | -3% | 2% | 2% | 1.9% | 1%
42 | N#Cc1nc(-c2ccc(COc3ccc(Cl)cc3)o2)oc1N1CCC(C(N)=O)CC1 | / | ? | -13%[46.1 µM] | / | 13%[46.1 µM] | / | -8.0% | ?
43 | CCOC(=O)C1=C(O)C(=O)C(C(=O)OCC)C1 (stereo not drawn) | ? | -5% | 20% | / | ? | / | / | /
44 | COc1ccc(OC)c(NC(=O)CS(=O)(=O)c2cn(CC(=O)N3CCOCC3)c3ccccc23)c1 | 1% | -12% | 6% | -2% | 0% | 1% | / | /
45 | CCc1ccccc1NC(=O)Nc1ccc2c(c1)OCO2 | 4% | 21% | 5% | 0% | 22% | 0% | / | /
46 | C=CCn1c(O)c(N=NC(=O)CNC(=O)/C=C/c2ccco2)c2ccccc21 | 7% | / | -9% | ? | -2% | -1% | -2.3% | -9%
47 | O/N=C(\COc1ccccc1O)c1ccccc1 | 3% | 9% | 3% | -15% | 2% | ? | 1.8% | -9%
48 | CNC(=O)c1ncnnc1N(C)C(=O)NCc1ccccc1 | 9% | -22% | 3% | 11% | -3%&-3% | 3% | 4.5% | 1%
